From PubChem BioAssay
Env fusion inh – inhibitors of HIV-1 Env-driven cell-cell fusion, primary screen, HeLa-JRFL effector, CEM21 target cells, luciferase. inhibition, % at 12.3 µM. 360,000 compounds, 1.1% hits. AID 651610, 2012;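 active = mean replicate inhibition score of at least 50 and every replicate individually at or above 50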;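 also: 0% = plate neutral controls and 100% = maraviroc near 300 nM; one replicate is shown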
MT1-MMP act inh – blockers of MT1-MMP proenzyme processing, primary screen, HT1080 RFP-PRO-GFP cells, GFP/RFP fluorescence; GFP/RFP ratio fluorescence, overnight; percent of plate control window, DMSO zero; GFP/RFP ratio change, % at 20 µM; 360,000 compounds, 0.061% hits; AID 651647, 2012;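 active = GFP/RFP ratio change of at least 30% with cell ATP level not reduced by more than half and red fluorescence within 50% of control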; also: strong numbers were not always called active
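Assay system: HT1080 RFP-PRO-GFP cells | Dosing: 20 µM single dose, 1% DMSO | Incubation: Cells overnight before dosing, compound overnight, 37 °C, 5% CO2 | Evaluation: GFP/RFP fluorescence ratio | Control set: DMSO-only wells and HT1080 RFP-L50D-GFP cell wells as references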
PABP polyA inh – PABP poly(A) RNA binding inhibitors, primary screen, biochemical, fluorescence polarization, uHTS. inhibition, % at 35 µM. 290,000 compounds, 1% hits;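 active = 50% or more with normal probe brightness, or confirmed in later tests; about a fifth of its hits are not listed in these tables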;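 also: calls also rest on retests at 20 µM and on dose response follow-up; controls were probe without protein and protein plus probe with vehicle; some compounds called inactive have numbers as strong as hits; many hits fall short of the cut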
Yeast UUG start – modulators of yeast start codon fidelity, primary screen, whole organism, S. cerevisiae, single point, plate reader; S. cerevisiae UUG-firefly luciferase reporter, luminescence/redox ratio; activity score, % at 18.7 µM; AID 602363, 2012; 350,000 compounds, 0.13% hits;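 active = replicate mean at a twofold rise or more, about +100% in these data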;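 also: firefly luciferase made from a UUG start codon reports start codon fidelity; reporter light over untreated wells divided by growth signal over untreated wells; some hits fall short of that in this replicate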
CSC inhib – cancer stem cell viability inhibitors, primary screen, luminescence; AID 2717, 2010; 300,000 compounds, 1.1% hits; cancer stem cell-like cells viability; inhibition, % at 7.5 µM;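 active = mean at 75% or more and at least half the replicates too; tested in HMLE shEcad cells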;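 also: 0% = median of negative and 100% = median of positive control wells; the first replicate is given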
Rce1 inhib – yeast Rce1p protease inhibitors, primary screen, biochemical, fluorescence, cell-free homogeneous. CAAX prenyl protease 2 (Saccharomyces cerevisiae (strain ATCC 204508 / S288c)), Q03530. yeast membranes, quenched prenylated peptide cleavage fluorescence. calls only. 290,000 compounds, 0.27% hits;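 active = fall in fluorescence gain of 50% or more versus controls, with final raw signal at or below 3038400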;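 also: plate controls were neutral control wells for no effect and wells lacking membranes for full effect; tested at 10 µM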
Target sequence (Q03530 whole entry, looked up): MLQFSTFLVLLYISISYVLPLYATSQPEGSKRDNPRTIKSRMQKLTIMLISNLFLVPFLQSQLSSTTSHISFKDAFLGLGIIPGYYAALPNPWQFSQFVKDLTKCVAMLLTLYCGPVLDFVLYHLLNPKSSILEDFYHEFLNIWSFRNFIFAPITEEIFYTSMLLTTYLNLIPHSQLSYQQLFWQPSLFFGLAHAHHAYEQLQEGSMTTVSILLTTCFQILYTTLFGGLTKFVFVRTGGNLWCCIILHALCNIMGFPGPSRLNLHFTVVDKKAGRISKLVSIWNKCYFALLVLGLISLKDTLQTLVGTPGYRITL
eIF4H inh – human eIF4H binding inhibitors, primary screen, translation initiation inhibitor project, biochemical, uHTS, fluorescence polarization; Eukaryotic translation initiation factor 4H (Homo sapiens), Q15056; eIF4H fluorescence polarization binding assay; inhibition, % at 35 µM; 290,000 compounds, 0.94% hits; AID 2012, 2009;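 active = 50% or more with normal probe brightness, or confirmed in later tests; about a fifth of its hits are not listed in these tables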;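 also: calls also rest on retests at 20 µM and on dose response follow-up; 0% = protein and probe with vehicle and 100% = probe without protein; strong numbers were not always called active; many hits fall short of the cut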
eIF4H inh retest – further read-out of eIF4H inh, marked with its call; inhibition, %; compound at 20 µM; confirmation average;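 mean of two retest wells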
PABP polyA inh retest – further read-out of PABP polyA inh, marked with its call; inhibition, %; compound at 20 µM; confirmation repeats;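 mean of two retest wells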
MT1-MMP act inh RFP – recorded beside MT1-MMP act inh, whose call it bears; RFP signal change, %; measured here: RFP expression control read;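 0 = vehicle wells; hits needed this value within 50% of zero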
An asterisk follows results filed as active; i = inactive; . = no result given.

SMILES	Env fusion inh	MT1-MMP act inh	MT1-MMP act inh RFP	PABP polyA inh	Yeast UUG start	CSC inhib	Rce1 inhib	eIF4H inh	others
CC(C)(C)OC(=O)C[C@H]1C/C=C\C[C@@H](CC(=O)N(CCO)Cc2ccccc2)C(=O)N[C@H](Cc2ccccc2)COC1=O	-4.8	-1.5	-2.5	.	-1.7	-12.7	.	.
COC(=O)c1ccc(OC(=O)CCN2C(=O)C3CCCCC3C2=O)cc1 (stereo not drawn)	5.5	2.2	4.1	4.1	-4.4	19.1	i	9.7
Cc1ccc(NC(=O)COC(=O)CN2CCCCCC2=O)c(C)c1	-1.9	-3.3	0.9	.	-15.9	.	.	.
CCCc1nnc(NC(=O)Nc2ccc(OC)cc2)s1	-4.2	2.1	1.5	5.4	.	-6.7	i	-8.4
CCOc1cc(NC(=O)c2ccccn2)c(OCC)cc1NC(=O)c1ccc(OC)cc1	0.2	7.7	1.5	-5.0	.	-0.9	i	-11.1
CNC(=O)c1ccccc1Sc1ccccc1C#N	-3.8	4.4	5.9	10.4	-14.4	-10.2	i	-12.4
CCCCn1c(SCC(=O)NC2CCS(=O)(=O)C2)nc2cc(S(N)(=O)=O)ccc21 (stereo not drawn)	5.9	0.3	3.3	8.1	.	-3.0	i	-0.2
CCCCOC(=O)c1ccc(O)cc1	-9.3	3.3	-0.8	-5.0	-11.8	16.5	i	1.9
O=C(Cc1cccc(NC(=O)C2CCCN(C(=O)C3CCCCC3)C2)c1)Nc1ccc(C(=O)N2CCOCC2)cc1 (stereo not drawn)	5.3	-0.3	-0.5	.	0.9	.	.	.
C/C(=N\NC(=O)c1sccc1-n1cccc1)c1cccs1	0.3	0.7	3.0	-0.4	.	-3.5	i	-0.6
COc1ccc(OC)c(-n2c(-c3ccccc3)n[nH]c2=S)c1	-70.6	2.1	1.2	-2.4	-28.1	-3.3	i	-1.8
COc1ccc(F)cc1S(=O)(=O)NC1CCCC1	.	4.5	7.9	-0.5	.	-15.1	i	-5.4
COc1cc(NC(=O)c2ccc(NS(=O)(=O)c3c(C)noc3C)cc2)cc(OC)c1	.	-0.4	1.0	8.4	9.5	-20.5	i	1.2
COC(=O)c1cnc(NNS(=O)(=O)c2ccc(C(F)(F)F)cc2)nc1C(F)(F)F	7.5	1.5	5.6	-1.0	.	-8.3	i	6.7
CCOC(=O)/C=C(\C)Sc1cc(O)c2ccccc2c1O	11.4	-3.9	-0.7	27.8	-27.4	.	.	16.1
COc1ccc(C(=O)NCC(=O)OCC(=O)c2ccc3c(c2)OCCO3)cc1	-12.2	-4.0	0.3	-2.1	-19.1	-0.6	i	-0.7
OC[C@@H]1CN(Cc2ccncc2)C[C@H](n2cnc3c(N4CCN(c5ccccc5)CC4)ncnc32)O1	37.1	15.2	-24.3	.	0.0	.	.	.
CCN(CC)c1ccc(S(=O)(=O)N2CCCCC2)cc1NC(=O)CSCc1c(C)noc1C	62.3*	-0.1	0.0	.	-12.6	.	.	.
Cc1cccc(Nc2nc(N)nc(CCl)n2)c1	-25.3	-5.0	-6.6	-5.1	-10.7	10.1	i	-0.3
CCN1C(=O)[C@H]2[C@@H](c3ccc(-c4ccc(F)cc4)cc3)N[C@@](C)(C(=O)OC)[C@H]2C1=O	8.2	3.1	-2.8	.	-2.5	.	.	.
Cc1ccc(Cn2nnc3c(=O)n(CC(=O)N4CCCc5ccccc54)cnc32)cc1	.	-0.7	-1.1	-2.1	4.2	-12.7	i	-1.3
CC(C)(O)c1cn(-c2nonc2N)nn1	.	-0.5	1.0	-2.2	-4.7	-10.8	i	-3.1
CCOc1cc(CNCc2cccs2)cc(Br)c1OC	.	6.0	3.8	-2.0	-16.2	1.4	i	-6.1
CC(C)Sc1nc2sc3c(c2c2nnc(SCC(=O)NCc4ccco4)n12)CCCC3	.	-18.8	-14.9	-7.3	-8.2	-7.4	i	1.5
Fc1cccc(Nc2ncnc3sc4c(c23)CCC4)c1	.	-2.5	-0.6	-13.3	-3.5	46.9	i	-15.1
The results go on:
SMILES	Env fusion inh	MT1-MMP act inh	MT1-MMP act inh RFP	PABP polyA inh	Yeast UUG start	CSC inhib	Rce1 inhib	eIF4H inh	others
N/C(Cc1nc2ccccc2s1)=N\O	-6.9	9.5	21.6	-11.4	.	-9.0	i	12.3
CN(C)c1ccc(/C=C(\C#N)C(=O)OCC(=O)N(C)C2CCS(=O)(=O)C2)cc1 (stereo not drawn)	-10.9	-6.4	1.5	.	-13.8	.	.	.
O=C(CC(Sc1ccc(Br)cc1)C(=O)O)c1ccc(Br)cc1 (stereo not drawn)	.	.	.	-4.0	.	.	i	10.8
CCc1nnc(N/N=C/c2cc(Br)c(O)cc2O)n1N	7.9	7.6	6.6	-5.4	-13.7	-4.1	i	8.9
CC1CCCN(C(=O)COC(=O)Cc2c(F)cccc2Cl)C1 (stereo not drawn)	-14.0	-0.7	2.6	7.3	-6.2	8.6	i	77.9	eIF4H inh retest=-3.5;PABP polyA inh retest=-5.8
O=C(COC(=O)c1ccccc1)Nc1ccccc1Sc1ccccc1	-3.4	-2.2	3.1	1.2	.	-7.8	i	-3.0
CCOC(=O)Cc1cc(-c2ccccc2)nc2ccc3ccccc3c12	-9.0	-7.8	-2.0	4.3	0.4	11.7	i	1.0
Cc1cc(Br)cc2c1NC(=O)C2(O)CC(=O)c1ccco1 (stereo not drawn)	2.6	1.2	6.0	-2.8	.	0.9	i	-3.6
COc1ccc(/C=N/NC(=O)c2cccnc2)cc1COc1ccc(NC(C)=O)cc1	-23.8	5.8	-6.5	-8.7	-4.7	53.2	i	5.4
COc1ccccc1CNC(=O)Nc1nnc([C@H]2C[C@H](O)[C@@H](CO)O2)s1	-3.7	2.0	3.6	.	-14.9	.	.	.
COc1ccc(CN2CCN(S(=O)(=O)c3ccc(F)cc3)CC2)c(OC)c1OC	-18.0	0.2	0.9	5.1	-9.1	-10.6	i	-2.0
O=C1C2C3C=CC(CC3)C2C(=O)N1c1ccc(Cl)cc1 (stereo not drawn)	0.2	2.7	-3.1	10.3	-22.2	20.0	i	-0.9
CN(C)S(=O)(=O)c1ccc2c(c1)C(CC(=O)O)OC2=O (stereo not drawn)	-103.9	2.6	2.4	2.9	-12.8	-19.2	i	-1.5
CCCCCC(=O)NC(=S)Nc1ccc(N2CCOCC2)cc1	-8.1	2.4	-0.5	-9.1	.	-7.4	i	3.5
CCC(=O)N1c2ccccc2NC2=C(C(=O)CCC2)C1c1ccco1 (stereo not drawn)	1.3	0.4	0.7	2.1	-3.5	.	i	5.4
CCOC(=O)/C=C/C(=O)Nc1ccc(S(=O)(=O)N2CCc3ccccc32)cc1	11.1	-0.3	1.5	-1.8	-8.9	13.1	i	-4.9
COc1ccc(NC2CCCN(C(=O)c3ccc4nc(C)c(C)nc4c3)C2)cc1OC (stereo not drawn)	-2.0	.	.	10.6	-1.7	14.8	i	-3.5
CCN(CC)S(=O)(=O)c1cc(NC(=O)CSc2nccn2C)ccc1C	15.5	1.4	-0.5	5.2	.	3.9	i	-1.5
CC(C)C1Nc2ccc(S(N)(=O)=O)cc2C2C=CCC21 (stereo not drawn)	13.5	-11.7	11.1	21.9	-1.7	-11.7	i	23.6
COc1ccc(C(c2sc3nc(C)nn3c2O)N2CCC(O)CC2)cc1OC (stereo not drawn)	-73.5	-4.0	3.1	2.1	-4.6	-17.3	i	-2.0
O=C(COC(=O)C1CCN(S(=O)(=O)c2ccc3c(c2)OCCO3)CC1)Nc1cccc2ccccc12	2.7	3.6	3.9	-20.2	-16.5	-20.9	i	-7.9
CN(C)C(=O)/C(=C\c1cccc(Oc2ccccc2)c1)NC(=O)c1ccccc1	.	-1.4	-6.1	0.7	-2.6	.	i	-4.0
CCCc1nc(NCc2ccccn2)c2nnn(Cc3ccccc3F)c2n1	.	11.2	-10.9	3.7	-5.5	.	i	-9.2
CC1(NCc2ccc(Cl)cc2)COP(=O)(NCc2ccccc2)OC1 (stereo not drawn)	5.4	-5.4	-0.7	.	-6.9	.	.	.
Cn1nc(C(F)(F)F)c(C(=O)Nc2ccc(Cl)cc2)c1Cl	-76.4	-3.7	-4.3	11.0	-27.1	2.0	i	-0.8

Next section, starting with the last 5 of the part before.
SMILES	Env fusion inh	MT1-MMP act inh	MT1-MMP act inh RFP	PABP polyA inh	Yeast UUG start	CSC inhib	Rce1 inhib	eIF4H inh	others
O=C(COC(=O)C1CCN(S(=O)(=O)c2ccc3c(c2)OCCO3)CC1)Nc1cccc2ccccc12	2.7	3.6	3.9	-20.2	-16.5	-20.9	i	-7.9
CN(C)C(=O)/C(=C\c1cccc(Oc2ccccc2)c1)NC(=O)c1ccccc1	.	-1.4	-6.1	0.7	-2.6	.	i	-4.0
CCCc1nc(NCc2ccccn2)c2nnn(Cc3ccccc3F)c2n1	.	11.2	-10.9	3.7	-5.5	.	i	-9.2
CC1(NCc2ccc(Cl)cc2)COP(=O)(NCc2ccccc2)OC1 (stereo not drawn)	5.4	-5.4	-0.7	.	-6.9	.	.	.
Cn1nc(C(F)(F)F)c(C(=O)Nc2ccc(Cl)cc2)c1Cl	-76.4	-3.7	-4.3	11.0	-27.1	2.0	i	-0.8
COc1cc(NC(=O)CN2C(=O)NC(C)(c3ccc4ccccc4c3)C2=O)c(C)cc1[N+](=O)[O-] (stereo not drawn)	2.1	0.4	-4.0	-12.8	-15.2	17.0	i	4.6
CCCC[C@H](CN(N=O)[C@@H](Cc1ccccc1)CN(C)N=O)N(CCc1ccccc1)N=O	88.4*	-7.3	-11.2	-1.1	-1.3	2.2	i	12.7
CC1OC2(OC1C)C(=O)Nc1ccccc12 (stereo not drawn)	-47.4	2.6	8.3	0.1	-18.2	7.6	i	1.3
CS(=O)(=O)N(CC(=O)N1CCN(c2ccccc2F)CC1)c1ccc2c(c1)OCCO2	-20.0	-1.0	-3.4	-11.3	-0.5	.	i	-11.7
NC(=O)c1ccc2c(c1)S(=O)(=O)c1ccccc1C2=O	-10.2	-3.8	-2.5	22.6	-7.9	4.8	i	14.9
Cc1ccsc1C(=O)Nc1ccc(S(=O)(=O)N2CCOCC2)cc1	.	1.6	-3.1	.	-1.3	7.0	.	.
COc1ccc(CNC(=O)[C@@H](C)NC(=O)C2CCN(C(=O)[C@@H](N)CCSC)CC2)cc1	.	2.6	9.0	-11.2	2.2	0.1	i	6.5
CCOc1ccc(OCC)c(S(=O)(=O)NCCOC23CC4CC(CC(C4)C2)C3)c1	18.1	-14.2	-25.8	-11.8	.	64.5	i	-12.3
CC1(C)CC(CC(=O)O)CC(C)(C)N1	-3.5	-1.1	3.6	-8.7	.	0.0	i	-5.6
CCc1ccc(N2CC(C(=O)Nc3ccc(S(=O)(=O)N4CCCCC4)cc3)CC2=O)cc1 (stereo not drawn)	1.2	-0.2	-9.6	-11.8	-0.1	4.8	i	9.0
O=C(Cc1ccccc1)NN1C(=O)/C(=C/c2ccccc2C(=O)O)SC1=S	-9.7	1.3	1.8	-0.1	-5.6	-5.1	i	-4.4
CC(=O)N/C(=N/c1nc(C)cc(C)n1)Nc1ccc(NC(C)=O)cc1	.	-1.5	0.6	0.4	-13.6	-16.4	i	-7.6
CCCNc1c(F)c(F)c2c(C)c3ccccc3nc2c1F	.	-63.8	11.0	46.1*	0.6	0.2	i	100.8*	eIF4H inh retest=93.1*;PABP polyA inh retest=83.9*
COc1cc(OC)cc(C(=O)NCCSC2CCCCC2)c1	12.1	8.7	3.0	-5.0	.	-11.7	i	0.6
